Source: PubChem
EPAC1 agonist – validation of human EPAC1 agonists. Potency, µM, for the others: max response, positive = active, usual class: activators. O95398. hit rate 1% among 16,000. AID 1645883. EPAC1 Rap1b BODIPY-GDP exchange, fluorescence; active = well fitted activation curve with a large enough effect;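 also: nearly all actives have a fitted effect of over 70% in size; series mostly up to about 76 or 150 µM; scaled to a cAMP control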
The depositor's hits bear a star; [ ] = dose if it differs, or a comment. % is scaled to controls: 0 for no effect and ±100 for the full control effect; potency is read from the fitted curve at half-maximal effect. An excerpt; the hit share may differ from the screen's.

How did O=C(c1ccco1)N1CCC2(CC1)CCN(c1ncccn1)CC2 do in these assays?
EPAC1 agonist: 1%

Results for NC(Cc1cccc(-c2ccccc2CP(=O)(O)O)c1)C(=O)O (stereo not given) ?
EPAC1 agonist: -1%

What do the screens show for `O=C(c1cccnc1)C1CCCN(Cc2ccc3c(c2)CN(C(=O)c2cccs2)CCO3)C1` (stereo not given)?
EPAC1 agonist: 5%

What do the screens show for `C#C[C@]1(O)CC[C@H]2[C@@H]3CCc4cc(OC5CCCC5)ccc4[C@H]3CC[C@@]21C`?
EPAC1 agonist: -21%

What do the screens show for `CC(C)NC(=O)N1CC2(CCN(C(=O)c3cc(C(F)(F)F)cc(C(F)(F)F)c3)CC2)C1`?
EPAC1 agonist: -45%[inhibitor]

What do the screens show for `COCC(=O)N1CCC2(CCCN(C(c3ccccc3)c3ccccc3)C2)CC1`?
EPAC1 agonist: 19%

How did CC(NC(=O)C1CCOCC1)c1nnc2n1CCN(Cc1ccc3cccnc3c1)CC2 (stereo not given) do in these assays?
EPAC1 agonist: -8%

What do the screens show for `COc1cc(C(C)=O)ccc1OCCCN1CCC(c2noc3cc(F)ccc23)CC1`?
EPAC1 agonist: 3%

How did [Li+] do in these assays?
EPAC1 agonist: 1%

What do the screens show for `COc1ccc(-n2c(=O)cnc3cnc(N4CCNCC4)nc32)cc1`?
EPAC1 agonist: -65%[inhibitor]

Results for O=C(c1cc(C(F)(F)F)cc(C(F)(F)F)c1)N1CCC2(CC1)CCN(c1ccncc1)CC2 ?
EPAC1 agonist: -100%[inhibitor]

What do the screens show for `COCCn1c(=O)c(-c2cccc(F)c2)nc2cncnc21`?
EPAC1 agonist: 14%

Results for COc1ccccc1-c1ccnc(-n2ncc(C(=O)NCc3cccc(C)n3)c2C)n1 ?
EPAC1 agonist: -5%

What do the screens show for `Cc1ccc(CNc2ncnc3sc(C(=O)N4CCCCC4c4cccnc4)c(C)c23)o1` (stereo not given)?
EPAC1 agonist: -16%

What do the screens show for `CC(=O)NCCNc1ncnc2ccc(-c3c(C)noc3C)cc12`?
EPAC1 agonist: -31%[inhibitor]

Results for CC(=O)NC(CCC(=O)O)C(=O)O (stereo not given) ?
EPAC1 agonist: -21%

Results for O=C(NCc1ccncc1)c1cnn(-c2nccc(-c3cc4ccccc4o3)n2)c1C1CC1 ?
EPAC1 agonist: -14%

What do the screens show for `Oc1ccc2c(c1)OCC1c3cc4c(cc3OC21)OCO4` (stereo not given)?
EPAC1 agonist: 5%

What do the screens show for `O=C1NC(=O)C(Cc2ccccc2)(C2CCN(Cc3cccn3-c3cccnc3)CC2)N1` (stereo not given)?
EPAC1 agonist: 8%

How did C#Cc1cccc(C(=O)NCc2nc(-c3ccccc3NC(C)=O)oc2C)c1 do in these assays?
EPAC1 agonist: 4%

How did O=C(C[n+]1ccncc1)c1cccc([N+](=O)[O-])c1 do in these assays?
EPAC1 agonist: -17%

How did CC[C@@H](C(=O)[C@@H](C)[C@@H](O)[C@H](C)CCc1ccc(C)c(O)c1C(=O)O)[C@H]1O[C@](CC)([C@H]2CC[C@](O)(CC)[C@H](C)O2)C[C@@H]1C do in these assays?
EPAC1 agonist: -41%[inhibitor]

Results for COc1cc(OC)c2nc(-c3cc4c(c(OC)c3)OCCN(C(=O)C(C)c3n[nH]c(=O)c5ccccc35)C4)cc(C)c2c1 (stereo not given) ?
EPAC1 agonist: 5%

10 structures already listed, ordered by SMILES length, highest first.
Results for COc1cc(OC)c2nc(-c3cc4c(c(OC)c3)OCCN(C(=O)C(C)c3n[nH]c(=O)c5ccccc35)C4)cc(C)c2c1 (stereo not given) ?
EPAC1 agonist: 5%

What do the screens show for `C#C[C@]1(O)CC[C@H]2[C@@H]3CCc4cc(OC5CCCC5)ccc4[C@H]3CC[C@@]21C`?
EPAC1 agonist: -21%

Results for O=C(NCc1ccncc1)c1cnn(-c2nccc(-c3cc4ccccc4o3)n2)c1C1CC1 ?
EPAC1 agonist: -14%

What do the screens show for `O=C1NC(=O)C(Cc2ccccc2)(C2CCN(Cc3cccn3-c3cccnc3)CC2)N1` (stereo not given)?
EPAC1 agonist: 8%

How did CC(NC(=O)C1CCOCC1)c1nnc2n1CCN(Cc1ccc3cccnc3c1)CC2 (stereo not given) do in these assays?
EPAC1 agonist: -8%

How did C#Cc1cccc(C(=O)NCc2nc(-c3ccccc3NC(C)=O)oc2C)c1 do in these assays?
EPAC1 agonist: 4%

Results for NC(Cc1cccc(-c2ccccc2CP(=O)(O)O)c1)C(=O)O (stereo not given) ?
EPAC1 agonist: -1%

How did O=C(C[n+]1ccncc1)c1cccc([N+](=O)[O-])c1 do in these assays?
EPAC1 agonist: -17%

What do the screens show for `CC(=O)NCCNc1ncnc2ccc(-c3c(C)noc3C)cc12`?
EPAC1 agonist: -31%[inhibitor]

How did [Li+] do in these assays?
EPAC1 agonist: 1%
